Screening data (PubChem)
FGF22 binding = FGF22 (human) thermal shift binding; AID 651658; calls only at 9.99 µM; 340,000 compounds, 1.5% hits; Q9HCT0; recombinant FGF22 thermal shift, SYPRO orange fluorescence; percent of sucrose octasulfate shift, DMSO zero;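 active = melting point raised past a set limit in the mean and every replicate; three in four hits are not shown here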
Target sequence (Q9HCT0 whole entry, looked up): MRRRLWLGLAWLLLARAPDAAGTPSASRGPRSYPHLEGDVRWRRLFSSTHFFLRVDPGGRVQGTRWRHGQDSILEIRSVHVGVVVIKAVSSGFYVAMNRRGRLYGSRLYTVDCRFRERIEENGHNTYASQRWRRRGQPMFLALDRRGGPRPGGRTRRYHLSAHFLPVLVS
AF4-AF9 inh = blocks AF4 peptide binding to human AF9 | 350,000 compounds, 0.47% hits | AID 651704 | AlphaScreen, biotin-AF4 peptide binding to FLAG-AF9 | inhibition, % at 10 µM;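 active = every replicate reaching a set inhibition limit, whatever the replicate mean, cut at about 25% in these data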;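 note: 0% = plate neutral control median and 100% = total signal loss; the record names both 10 and 1 µM as test concentration; the first replicate is given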
Ecoli rRNA inh = selective bacterial rRNA inhibition in E. coli | E. coli WT GFP vs humanized-ribosome RFP mutants, fluorescence, 24 h; active compounds read low; DMSO median 0, no signal -100 | GFP signal change (wild-type ribosome), % (no concentration beside the values) | 350,000 compounds, 1.6% hits;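 active = significant combined selectivity score with lowered wild-type GFP, culture density cut under 30%, mutant RFP and density less affected; inactive = any of these conditions unmet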; note: one replicate is shown; some compounds called inactive have numbers as strong as hits
ALR inh = human ALR oxidase inhibition via reduced H2O2 | 290,000 compounds, 3.8% hits | purified ALR, DTT oxidation, H2O2 HRP-luminol luminescence | inhibition, % (concentration not given with the values) | P55789;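 active = mean and each replicate at 75% or more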;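 note: stock transfer was 7.5 nL into about 7.5 µL; 0% = neutral wells and 100% = wells with inactivated enzyme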
Target sequence (P55789 whole entry, looked up): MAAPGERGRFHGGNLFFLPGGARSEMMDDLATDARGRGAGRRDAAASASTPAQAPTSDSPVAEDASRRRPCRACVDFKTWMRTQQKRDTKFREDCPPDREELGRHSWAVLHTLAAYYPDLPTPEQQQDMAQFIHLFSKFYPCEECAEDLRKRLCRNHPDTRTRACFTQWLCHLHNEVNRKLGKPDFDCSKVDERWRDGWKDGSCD
Vif TR-FRET = HIV-1 Vif–A3G interaction blockers – biochemical, TR-FRET, GST-Vif 1-94, biotin-A3G peptide, dose response retest, primary screen (AID 1117319) | TR-FRET GST-Vif / biotin-A3G peptide binding; higher % means a stronger effect; test concentration not given here; strong numbers were not always called active | one-dose inhibition, %; IC50 in µM for titrated hits | 260,000 compounds, 0.57% hits;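 active = above the screen mean plus three standard deviations and confirmed in dose response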;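 note: Vif residues 1-94 fused to GST binding biotinylated APOBEC3G peptide 110-148; 0% = full assay without inhibitor and 100% = GST in place of GST-Vif; retest series ran down from 100 µM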
HNF4A DNA FP = change in binding of human HNF4 alpha to DNA. AID 1224865. activity change, % at 10 µM. 360,000 compounds, 0.3% hits. HNF4a-FITC DNA binding, fluorescence polarization, 1 h. P41235; in the data active = activity change above about 30%, passing the limit was not always enough;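 note: controls were the assay level and a saturating level of protein; the project sought stronger binding though the title names inhibitors; some compounds called inactive have numbers as strong as hits; positive values seem to mean higher polarization but the record does not say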
Target sequence (P41235 whole entry, looked up): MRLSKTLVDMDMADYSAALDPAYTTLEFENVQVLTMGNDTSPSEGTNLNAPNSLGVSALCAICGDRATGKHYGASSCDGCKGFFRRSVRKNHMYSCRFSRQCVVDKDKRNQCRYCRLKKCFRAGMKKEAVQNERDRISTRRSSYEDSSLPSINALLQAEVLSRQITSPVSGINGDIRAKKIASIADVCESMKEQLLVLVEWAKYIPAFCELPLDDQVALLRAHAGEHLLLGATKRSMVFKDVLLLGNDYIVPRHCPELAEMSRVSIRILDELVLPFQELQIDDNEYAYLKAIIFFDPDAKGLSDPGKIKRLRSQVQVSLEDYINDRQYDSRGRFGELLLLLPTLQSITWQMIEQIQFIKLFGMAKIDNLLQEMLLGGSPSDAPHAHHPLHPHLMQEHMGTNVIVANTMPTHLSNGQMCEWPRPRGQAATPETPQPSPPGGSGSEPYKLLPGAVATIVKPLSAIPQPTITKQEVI
E coli growth = blocks Escherichia coli growth | 330,000 compounds, 0.21% hits | OD600, 23 h; active compounds read low | AID 1053175 | OD600 absorbance (concentration not given with the values);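 active = OD600 absorbance below the run mean of sample wells minus 3.6 SD, in any replicate, cut at about 0.56 in these data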;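 note: stock transfer was 300 nL into about 60 µL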
Ecoli rRNA inh OD600 = second read-out of Ecoli rRNA inh, no call of its own (marks repeat the call); OD600 change, %; measured here: OD600 growth;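 optical density of the mix in the first replicate; 0 = DMSO median and -100 = no signal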
Ecoli rRNA inh RFP = also measured in Ecoli rRNA inh; calls as there; RFP signal change, %; measured here: RFP humanized mutant strains;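 first replicate; 0 = DMSO median and -100 = no signal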
* marks the source's active call; other numbers are inactive results; i = inactive; / = no result given; & = joins results of further samples. This is a subset. The share of hits here may be higher or lower than overall.

| mol | FGF22 binding | AF4-AF9 inh | Ecoli rRNA inh | Ecoli rRNA inh OD600 | Ecoli rRNA inh RFP | ALR inh | Vif TR-FRET | HNF4A DNA FP | E coli growth |
| --- | --- | --- | --- | --- | --- | --- | --- | --- | --- |
| Cc1c(C(=O)N2CCN(C(=O)c3ccco3)CC2)sc2nc(-c3ccc(F)cc3)cn12 | i | -5.4 | 1 | 5 | -1.7 | -14 | 21% | 1.0 | 0.73 |
| CC(=O)NN=C(C)c1ccc(NC(=O)C2CC2)cc1 | i | -1.2 | 20 | 18 | 4.2 | / | / | -0.3 | / |
| Cc1ccccc1OCCCn1c(CO)nc2ccccc21 | i | -2.8 | -22 | -41 | 1.9 | 1 | 6% | 1.3 | 0.69 |
| CC(C)N1CC(C(=O)Nc2ccc(Cl)cc2Cl)CC1=O (stereo not drawn) | i | -7.3 | 11 | 22 | -3.3 | / | -3% | 1.1 | / |
| O=C(COC(=O)Cn1cc(C(F)(F)F)ccc1=O)Nc1ccc(Br)cc1F | i | -0.3 | 6 | 7 | -1.0 | / | 1% | -0.3 | 0.59 |
| O=C(CSC1CCc2ccccc21)NNC(=O)Nc1ccc(Cl)cc1 (stereo not drawn) | i | -0.6 | -60 | -80 | -24 | / | / | / | / |
| Cc1cccn2c(=O)c(C=C(C#N)C#N)c(N3CCN(c4ccccc4)CC3)nc12 | i | 9.9 | -2 | 3 | 4.2 | -1 | / | -1.8 | 0.69 |
| O=C(C1CC(=O)N(c2ccccc2)C1)N1CCN(C2=NS(=O)(=O)c3ccccc32)CC1 (stereo not drawn) | / | / | / | / | / | -1 | 8% | -0.6 | 0.7 |
| COc1ccc(Cl)cc1NC(=O)CN1CCC(n2nnc3cc(C)ccc32)CC1 | / | / | / | / | / | -3 | -7% | 4.9 | 0.74 |
| CCN(CC)S(=O)(=O)c1ccc(C)c(NC(=O)COc2ccc(Cl)cc2Br)c1 | i | 4.4 | -8 | -18 | -4.5 | / | / | -1.0 | 0.68 |
| O=C(C[C@H]1C[C@H]2c3cc(NC(=O)C4CCC4)ccc3O[C@H]2[C@@H](CO)O1)NCCN1CCCCC1 | i | 1.4 | 1 | 5 | -0.6 | / | / | / | / |
| CC(C)C[C@H]1CN(CCCC[C@@H]2CNC(=O)C(=O)N2Cc2ccccc2)C(=O)C(=O)N1CCC1CCCCC1 | i | 3.0 | -49 | -76 | -16 | / | / | -2.6 | / |
| O=C1CN(C(=O)CSc2nc(-c3ccc(Cl)cc3)cs2)c2ccccc2N1 | i | 2.7 | -21 | -29 | -2.4 | 0 | 9% | 3.0 | / |
| Nc1nnnn1CC(=O)N/N=C/c1ccccn1 | i | -1.4 | 1 | 7 | -1.4 | -3 | 2% | 2.4 | / |
| CCCn1cnc2c(SCc3ccccn3)nc(N)nc21 | i | -0.4 | -2 | 5 | -0.4 | / | -5% | -2.5 | 0.62 |
| NC(=O)/C(=N\O)c1ccccc1 | / | / | / | / | / | -6 | -8% | 2.0 | / |
| COc1ccccc1N(C(=O)CNC(=O)c1ccco1)C(C(=O)NC1CCCC1)c1ccncc1 (stereo not drawn) | / | / | / | / | / | -5 | -2% | 3.3 | 0.69 |
| Cc1noc(C)c1NC(=O)N(C)C[C@H]1Oc2ccc(N(C)C)cc2C(=O)N([C@@H](C)CO)C[C@@H]1C | i | -0.8 | -1 | 0 | -1.7 | / | / | / | / |
| O=C(N/N=C/c1ccc(-c2ccccc2[N+](=O)[O-])o1)[C@H]1C[C@@H]1c1ccccc1 | i | 6.7 | / | / | / | -8 | 3% | -3.1 | / |
| CCO[C@@H]1c2c(ccc3ccc(=O)oc23)OC(C)(C)[C@@H]1O | i | -12 | 5 | 8 | 7.5 | 0 | / | -0.2 | 0.8 |
| CN(C)C(=O)[C@H]1[C@H](CO)[C@H]2Cn3c(ccc(-c4ccncc4)c3=O)[C@H]2N1Cc1ccccc1F | i | -5.4 | 0 | -4 | -1.2 | / | / | / | / |
| COc1ccc(N=C2C(=Nc3ccc(OC)cc3)N(c3ccc(OC)cc3)C(=S)N2C)cc1 | / | / | / | / | / | -1 | 6% | 8.1 | 0.77 |
| C[C@@H]1CN([C@@H](C)CO)C(=O)c2cc(NC(=O)Nc3ccccc3)ccc2O[C@@H]1CN(C)C | i | -0.6 | 4 | 2 | -2.0 | / | / | / | / |
| COCOc1ccc(-c2cc(=O)c3c(O)cc(OCOC)cc3o2)cc1 | i | 0.6 | -2 | 5 | 6.1 | -18 | / | 2.8 | 0.8 |
| C[C@@H]1CN([C@@H](C)CO)C(=O)Cc2cc(NC(=O)Nc3cccc4ccccc34)ccc2O[C@@H]1CN(C)Cc1ccc(C(F)(F)F)cc1 | i | 1.9 | 2&17 | -8&12 | -1.7&9.4 | 1 | / | -1.4 | / |
| COC(=O)C(C)Sc1ncnc2c1nnn2-c1ccc(F)cc1 (stereo not drawn) | / | / | / | / | / | 98* | 7% | -6.4 | 0.71 |
| O=C(Cn1cnc2c(cnn2-c2ccc(F)cc2)c1=O)N1CCN(c2ccccc2)CC1 | / | / | / | / | / | / | 70% | 0.6 | 0.78 |
| COc1ccc(-c2nc(C#N)c(NCCCN(C)C)o2)cc1OC | / | / | / | / | / | 59 | -4% | -4.3 | 0.65 |
| Cc1ccc(C)c(N2CCN(C(C(=O)NC3CCCC3)C(C)C)CC2)c1 (stereo not drawn) | i | 0.6 | 8 | 11 | 1.1 | / | / | 3.6 | / |
| CCOC(=O)c1c(-c2cccc(C)c2)csc1NC(=O)c1c(-c2ccccc2)noc1C | / | / | / | / | / | 2 | -3% | 10 | 0.73 |
| COc1ccc(NC(=O)c2ccco2)cc1NC(=O)COc1ccccc1[N+](=O)[O-] | i | 0.5 | 8 | 5 | -6.9 | / | / | -0.2 | 0.67 |
| CC(C)Oc1ccc(CCc2nnc(SCC(=O)O)n2-c2ccccc2)cc1 | i | -19 | -6 | -6 | -4.0 | -2 | 6% | 2.6 | 0.72 |
| CCOC(=O)c1ccc(N2C(=O)CC(N3CCOCC3)C2=O)cc1 (stereo not drawn) | / | / | / | / | / | -10 | 29% | 2.6 | 0.75 |
| NC(=O)CC(NC(=O)c1ccccc1)c1ccc(NCCCN2CCCC2=O)c([N+](=O)[O-])c1 (stereo not drawn) | i | 0.2 | 3 | 5 | -0.4 | -12 | / | -0.8 | 0.64 |
| OC(c1ccccc1)(c1ccccc1)C1CCN(CCCOc2ccc(F)cc2)CC1 | i | 7.7 | -42 | -80 | -13 | / | / | -5.3 | / |
| COc1ccc(N=C2SC(C(=O)Nc3ccc(OC)cc3)CC(=O)N2CCN2CCOCC2)cc1 (stereo not drawn) | / | / | / | / | / | 0 | 0% | 1.3 | 0.66 |
| CCCC#Cc1ccc2c(c1)O[C@@H](CN(C)Cc1ccccn1)[C@@H](C)CN([C@H](C)CO)S2(=O)=O | i | 0.9 | -10 | -30 | -2.4 | / | / | / | / |
| CC(=O)OC1c2c(ccc3ccc(=O)oc23)OC(C)(C)C1OC(=O)CC(C)C (stereo not drawn) | / | -1.0 | / | / | / | -13 | 2% | 2.9 | 0.65 |
| CO[C@@H](CN(C)C(=O)C1CC1)[C@@H](C)CN(C(=O)Nc1ccc(C(F)(F)F)cc1)[C@H](C)CO | i | -1.1 | -60 | -78 | -21 | / | / | / | / |
| COc1ccc(COC(=O)N/N=C(\C)CC(=O)NCc2ccc(Cl)cc2)cc1 | i | -1.3 | -9 | 1 | -1.8 | 14 | -2% | -0.8 | / |
| C[C@@H]1CN([C@H](C)CO)C(=O)c2cc(C#CCN(C)C)cnc2O[C@@H]1CN(C)C(=O)c1cccnc1 | i | -5.3 | -1 | 3 | -3.0 | / | / | / | / |
| COc1ccc(C(=O)c2c[nH]c(C(=O)NCC3CCCO3)c2)cc1 (stereo not drawn) | / | / | / | / | / | / | 26% | 0.3 | 0.69 |
| Cc1noc(C)c1NC(=O)Nc1ccc2c(c1)C(=O)N([C@H](C)CO)C[C@@H](C)[C@H](CN(C)Cc1ccc(C(=O)Nc3ccccc3N)cc1)O2 | i | -0.3 | 3 | 12 | -0.1 | / | / | / | / |
| C[C@@H]1CN([C@H](C)CO)C(=O)c2cc(NS(=O)(=O)c3ccccc3)ccc2O[C@@H]1CN(C)C(=O)Nc1ccccc1 | i | -3.7 | 6 | 5 | -3.3 | / | / | / | / |
| O=C(Nc1ccc(S(=O)(=O)N2CCOCC2)cc1)C1CC(=O)N(c2ccc(F)cc2)C1 (stereo not drawn) | i | -0.8 | 0 | 6 | 1.6 | 3 | / | 3.3 | 0.68 |
| CCOc1cc(CN2CCCCC2)ccc1OC | / | / | / | / | / | -20 | 3% | 7.1 | 0.7 |
| Cc1ccc(-c2csc(NC(=O)COC(=O)c3cccc(S(=O)(=O)N4CCOCC4)c3)n2)cc1 | / | / | / | / | / | -21 | 1% | / | 0.69 |
| COc1ccc(-c2c(C#Cc3ccsc3)c3cc(Br)ccc3n2C)cc1 | / | / | / | / | / | 1 | / | 0.2 | 0.69 |
| O=C(CNCc1cccnc1)Nc1cc(C(F)(F)F)ccc1N1CCOCC1 | i | -1.4 | 1 | 3 | 0.0 | -3 | 31% | 3.2 | 0.63 |
| CCOC(=O)Nc1ccc(OCc2nnc3c4ccccc4c(C)nn23)cc1 | i | -2.1 | -5 | -8 | -1.3 | -7 | 6% | -7.3 | 0.68 |

The list continues.
| mol | FGF22 binding | AF4-AF9 inh | Ecoli rRNA inh | Ecoli rRNA inh OD600 | Ecoli rRNA inh RFP | ALR inh | Vif TR-FRET | HNF4A DNA FP | E coli growth |
| --- | --- | --- | --- | --- | --- | --- | --- | --- | --- |
| O=C1C=C(N2CCCCCC2)C2(CCCCC2)O1 | i | -1.2 | 17 | -8 | 0.1 | -2 | -5% | -4.0 | 0.71 |
| Cc1ccc(CN2C(=O)CCC2C(=O)NCc2ccc(F)cc2)cc1 (stereo not drawn) | / | / | / | / | / | -2 | 16% | 6.2 | 0.67 |
| COc1ccc(C(CNC(=O)c2cccn2C)N2CCOCC2)cc1 (stereo not drawn) | i | 3.2 | 8 | 8 | -1.1 | -5 | 11% | -2.2 | 0.7 |
| CCc1ccccc1NC(=S)NC1CC2CCC(C1)N2Cc1ccco1 (stereo not drawn) | i | -26 | 1 | 3 | -9.5 | -27 | 0% | 1.8 | 0.64 |
| CC(C)CCn1c(=O)c2ccccc2n2c(CCl)nnc12 | i | 2.9 | -1 | 11 | -2.8 | / | 25% | 1.4 | 0.69 |
| CCc1cc2cc(C)cc(C)c2nc1Cl | i | -0.9 | 15 | 1 | -2.7 | -6 | 0% | -0.2 | 0.65 |
| C[C@@H]1CCCCO[C@H](CN(C)S(=O)(=O)c2ccccc2)[C@@H](C)CN([C@H](C)CO)C(=O)c2cc(NC(=O)CCCCCC(=O)Nc3ccccc3N)ccc2O1 | i | -1.0 | 2 | 6 | 1.2 | / | / | / | / |
| Cc1ccc(-n2[nH]c(C)c(/C=N/c3ccccn3)c2=O)cc1 | / | / | 9 | 5 | -1.7 | -2 | 0% | 0.9 | / |
| CCOc1ccc(CCNC(=O)CCC(=O)N2CCOc3ccccc32)cc1OCC | i | 7.2 | -5 | -1 | -8.1 | -1 | / | 2.2 | 0.74 |
| O=C(C[C@@H]1CC[C@H](NC(=O)Cc2ccccn2)[C@@H](CO)O1)NCCCN1CCOCC1 | i | -1.3 | 1 | 0 | -2.4 | / | / | / | / |
| Cc1cc(C(=O)Nc2cccc3c2O[C@@H](CN(C)C)[C@@H](C)CN([C@H](C)CO)C3=O)n(C)n1 | i | -0.5 | 6 | 20 | -0.1 | / | / | / | / |
